S aureus helic: S. aureus DNA helicase inhibition; purified S. aureus helicase, fluorescence unwinding assay; about half of the hits fall short of the stated cut; inhibition, %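 (tested at about 80 µM)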; 120,000 tested, 0.05% active; AID 485395;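 active means both duplicates at 50% or more, or one of them with a favoured structure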;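 further: 0% = mean of negative control wells and 100% = mean of positive control wells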
MgrA DNA FP: modulators of Staphylococcus aureus MgrA DNA binding; fluorescence polarization; inhibition, %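 (about 10 µg/mL by stock and volumes)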; 84,000 tested, 0.13% active; AID 602314;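 active means above 50% in either of two replicates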;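 further: 0% = protein plus DNA without compound and 100% = DNA alone without protein; higher means less MgrA bound to DNA so lower polarization; one replicate is shown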
Starred values were filed as active, the others as inactive; x = no result given; & = joins results of further samples. Only part of the results is shown; the hit share may differ from the screen's.

Every second line gives: MgrA DNA FP | S aureus helic
#1 O=C(CCC1CCCC1)NCc1ccco1
    -0.1 | -6.0
#2 COc1ccc2ncc(S(=O)(=O)c3ccccc3)c(N3CCC(C(N)=O)CC3)c2c1
    -0.1 | 14.0
#3 O=C(Nc1ccc2c(c1)C(=O)OC2)c1ccno1
    -3.2 | x
#4 COc1ccc(Br)c(C(=O)Nc2c(F)cccc2F)c1
    -2.1 | x
#5 Cc1cc(SCc2ncon2)c(C)cc1Cl
    1.9 | x
#6 O=C(Cn1c(SCc2ccccc2F)nc2ccncc21)NCC1CCCO1 (stereo unspecified)
    x | 10.0
#7 CC(C)[C@@H]1NC(=O)[C@H](Cc2ccccc2)NC(=O)[C@@H](CC(=O)O)NC(=O)CNC(=O)[C@H](CCCN=C(N)N)NC1=O
    2.2 | x
#8 CN1CCN(c2ccc(CNS(=O)(=O)c3ccc4c(c3)CCO4)cc2)CC1
    -7.3 | x
#9 CC(C(=O)NCc1cccnc1)N1Cc2ccccc2C1=O (stereo unspecified)
    x | 5.0
#10 CCOC(=O)c1c(C=O)oc2c(C)cc(OC(=O)c3ccc(C(C)(C)C)cc3)c(Br)c12
    2.0 | x

Remaining list, next part.
Every second line gives: MgrA DNA FP | S aureus helic
#11 Cc1cc(NC(=O)Nc2cccc(C(F)(F)F)c2)n(C)n1
    -0.6 | x
#12 O=c1[nH]c(=O)n(C2CCCO2)cc1F (stereo unspecified)
    x | -14.0
#13 O=c1cc(C(F)(F)F)[nH]n1-c1ccccc1
    -4.3&2.8 | 8.0
#14 CC1Cc2ccccc2N1S(=O)(=O)c1ccccc1 (stereo unspecified)
    6.3 | 5.0
#15 CSc1scc(NC(=O)c2ccc(Cl)cc2)c1S(=O)(=O)C(C)C
    -1.6 | x
#16 COC(=O)C1CC(=O)OC1c1ccccc1 (stereo unspecified)
    x | 1.0
#17 Cc1ccc(C(=O)Nc2ccc(-c3nnc(-c4ccco4)o3)cc2)cc1C
    23.4 | -2.0
#18 CC(C)(C)C(=O)N1CCn2c1nc1ccccc12
    x | 9.0
#19 CSc1cccc(-n2c(C)ccc2C)c1
    x | -21.0
#20 CCC(=O)N1CCN(c2cc(Cl)ccc2C)CC1
    1.4 | 4.0

Further entries follow.
Every second line gives: MgrA DNA FP | S aureus helic
#21 COC(=O)c1cc(C#N)c(SCC(=O)C(C)(C)C)nc1C(OC)OC
    x | -17.0
#22 Cc1ccc(S(=O)(=O)N2CCN(C(=O)c3ccc(OCc4c(C)noc4C)cc3)CC2)cc1
    x | -15.0
#23 CCOc1ccc(C(=O)C(C)OC(=O)c2cccc(-n3cnnn3)c2)cc1 (stereo unspecified)
    x | 13.0
#24 Nc1nc2c(s1)CCCC2
    8.4 | -14.0
#25 CN(C)C=Nc1c(C#N)c2n(c1C(=O)c1ccc(Br)cc1)CCC2
    3.2 | -13.0
#26 Cc1ccc2c(c1)NC(=O)C(CC(=O)N(C)Cc1ccccc1)O2 (stereo unspecified)
    x | 9.0
#27 O=C(COC(=O)c1n[nH]c2ccccc12)Nc1ccc(N2CCOCC2)cc1
    x | -9.0
#28 COC(=O)C1=C(C)c2oc(N)nc2C1c1ccc(C(C)C)cc1 (stereo unspecified)
    8.6 | 6.0
#29 O=C(NCc1ccco1)c1ccc(-c2csnn2)cc1
    2.9 | x
#30 O=C(NCCc1ccccc1)c1ccccc1NS(=O)(=O)N1CCCC1
    x | 15.0

Further results follow.
Every second line gives: MgrA DNA FP | S aureus helic
#31 C/C(=C\C(=O)Nc1ccc(F)cc1)Nc1ccc(F)cc1
    -1.4 | x
#32 CC(NC(=O)NC(C)(C)C)c1ccccc1 (stereo unspecified)
    x | -25.0
#33 COC(=O)c1nc(NC(=O)c2ccccc2)n[nH]1
    x | -3.0
#34 CC1CC(C)CN(c2nnc(N)s2)C1 (stereo unspecified)
    x | 9.0
#35 CCOc1ccc(OCc2ccc(C(=O)OCc3ccccn3)o2)cc1
    x | 17.0
#36 Oc1ccc(N=c2cc(-c3ccccc3)oc3ccc(Cl)cc23)cc1
    5.2 | 7.0
#37 Cc1csc(SCC(=O)NC(=O)NCc2ccco2)n1
    x | -8.0
#38 COc1ccc(-n2nc(C(=O)O)cc2-c2ccccc2)cc1
    0.3 | -1.0
#39 COc1cccc(NC(=O)c2sc3[nH]c(=O)c(C(=O)O)cc3c2N)c1
    x | 37.0
#40 C#CC1(C)CCCC(C)(C)O1 (stereo unspecified)
    x | -17.0

(list continues)
Every second line gives: MgrA DNA FP | S aureus helic
#41 CCOc1ccc(S(=O)(=O)N(C)c2ccc(OCC(=O)OCc3c(C)noc3C)cc2)cc1
    x | 3.0
#42 Nc1nonc1-c1nc2ccccc2n1CCn1c(-c2nonc2N)nc2ccccc21
    -0.1 | 5.0
#43 CS(=O)(=O)c1cccc(C(=O)O)c1
    x | -9.0
#44 NC(CC1CCCCC1)C(O)C(F)(F)F (stereo unspecified)
    1.3 | -5.0
#45 CN(C)CCSc1nc(-c2cccs2)cc(-c2ccc(Cl)cc2)c1C#N
    -4.5 | -12.0
#46 COc1cccc(-c2noc(Nc3ccccc3)n2)c1
    x | 4.0
#47 O=c1c(-c2nn[nH]n2)coc2ccccc12
    -3.8 | x
#48 Cc1c(-n2cc(C(=O)O)c(=O)c3c(F)c(F)c(F)c(F)c32)c(=O)n(-c2ccccc2)n1C
    2.5 | 8.0
#49 O=C(Cn1nc(C(=O)O)c2ccccc2c1=O)NC12CC3CC(CC(C3)C1)C2
    x | 8.0
#50 O=c1ccc(-c2ccc3c(c2)OCO3)nn1Cc1ccc(F)cc1
    x | -1.0

Record cards (already shown):
O=c1c(-c2nn[nH]n2)coc2ccccc12 reads MgrA DNA FP = -3.8; S aureus helic = x
O=C(Cn1nc(C(=O)O)c2ccccc2c1=O)NC12CC3CC(CC(C3)C1)C2 reads MgrA DNA FP = x; S aureus helic = 8.0

Next section:
Every second line gives: MgrA DNA FP | S aureus helic
#51 O=C(CSc1ncn[nH]1)N1CCCCC1
    -1.8 | 8.0
#52 Cc1ccc(-c2nnc(N3CCNC(=O)C3)c3ccccc23)cc1
    x | -3.0
#53 CNS(=O)(=O)c1cccc(C(=O)OCC(=O)N2c3ccccc3NC(=O)C2(C)C)c1
    x | 9.0
#54 CC(C)=CCOc1ccc2c(C)cc(=O)oc2c1
    1.1 | 3.0
#55 Cc1[nH]n(-c2ccccc2)c(=O)c1C=Nc1cccc(N)c1
    5.7 | 15.0
#56 C1CC(CCN2CCOCC2)CCN1
    10.4 | 9.0
#57 COc1ccc(C(=O)COC(=O)c2c3c(nc4ccccc24)CCN(C)C3)cc1
    x | -13.0
#58 O=C1ON=C(c2ccccc2)C1C=C1CCCC1 (stereo unspecified)
    6.9 | x
#59 CC(NC(=O)Cc1ccccc1)c1nc2ccccc2[nH]1 (stereo unspecified)
    x | -4.0
#60 CCOC(=O)c1c(C)noc1/C(C)=N\OC(=O)c1ccccc1
    x | 29.0

The closing four entries of the part above come first, to join the parts.
Every second line gives: MgrA DNA FP | S aureus helic
#57 COc1ccc(C(=O)COC(=O)c2c3c(nc4ccccc24)CCN(C)C3)cc1
    x | -13.0
#58 O=C1ON=C(c2ccccc2)C1C=C1CCCC1 (stereo unspecified)
    6.9 | x
#59 CC(NC(=O)Cc1ccccc1)c1nc2ccccc2[nH]1 (stereo unspecified)
    x | -4.0
#60 CCOC(=O)c1c(C)noc1/C(C)=N\OC(=O)c1ccccc1
    x | 29.0
#61 Cc1onc(-c2ccccc2)c1CN1CCCCC1
    -0.4 | x
#62 Cc1c(C)c(C)c(CSC2=NCCCN2C2CCCCC2)c(C)c1C
    -1.0 | x
#63 CCc1cc(SCc2nnc(-c3ccccc3)o2)n2c(nc3ccccc32)c1C#N
    x | -3.0
#64 CN(C)Cc1c(O)ccc2c(=O)c(Oc3ccccc3)coc12
    -0.6 | -11.0
#65 Cc1cc2nc3c(=O)n(C)c(=O)[nH]c3nc2cc1N=CN(C)C
    x | -92.0
#66 Cn1cccc1/C=C1\CN(Cc2ccccc2)C/C(=C\c2cccn2C)C1=O
    x | -99.0
#67 COC(=O)C1=CN(C)C=C(C(=O)OC)C1c1ccc(C(C)C)cc1
    -2.1 | -1.0
#68 COc1ccc(N(CC(=O)c2cc(C)n(C)c2C)S(=O)(=O)c2ccc3c(c2)OCCO3)cc1
    x | 36.0
#69 N#CCc1ccc(OC(=O)c2sc3ccccc3c2Cl)cc1
    -0.1 | x
#70 COC(=O)c1cc(Oc2ccc(C(=O)OC)cc2N)cc(C(=O)OC)c1
    -3.4 | 13.0

Some of these compounds in order of length of the SMILES, highest first:
Every second line gives: MgrA DNA FP | S aureus helic
#63 CCc1cc(SCc2nnc(-c3ccccc3)o2)n2c(nc3ccccc32)c1C#N
    x | -3.0
#66 Cn1cccc1/C=C1\CN(Cc2ccccc2)C/C(=C\c2cccn2C)C1=O
    x | -99.0
#67 COC(=O)C1=CN(C)C=C(C(=O)OC)C1c1ccc(C(C)C)cc1
    -2.1 | -1.0
#62 Cc1c(C)c(C)c(CSC2=NCCCN2C2CCCCC2)c(C)c1C
    -1.0 | x
#69 N#CCc1ccc(OC(=O)c2sc3ccccc3c2Cl)cc1
    -0.1 | x

(more compounds)
Every second line gives: MgrA DNA FP | S aureus helic
#71 Cn1c(NC2CC(=O)N(c3ccc(Cl)cc3Cl)C2=O)cc(=O)n(C)c1=O (stereo unspecified)
    -0.6 | 6.0
#72 O=C1C2C(c3ccccc3)C=CC(c3ccccc3)C2C(=O)N1c1cccc(O)c1 (stereo unspecified)
    x | 5.0
#73 CCOC(=O)c1cnc2c(ccc3ccccc32)c1NCc1cccnc1
    x | 7.0
#74 CC1CCCCN1S(=O)(=O)c1ccc(S(=O)(=O)N2CCN(c3ncccn3)CC2)cc1 (stereo unspecified)
    x | -24.0
#75 c1ccc(-c2csc3ncn4cnnc4c23)cc1
    -0.2 | 10.0
#76 CN(CCC#N)C(=O)c1ccc2c(c1)N(Cc1ccc(F)cc1)C(=O)c1ccccc1S2(=O)=O
    5.8 | 9.0
#77 Cc1ccc2oc(=O)c3cc(C(=O)NCCN4CCCCC4C)sc3c2c1 (stereo unspecified)
    -1.8 | 46.0*
#78 NCC(=O)NCC(=O)NCC(=O)O
    -2.7 | x
#79 CSc1nc(-c2ccccc2)[nH]c(=O)n1
    -2.6 | x
#80 Cc1onc(-c2ccccc2)c1C(=O)NCCN(C)C
    -0.5 | x

Following part.
Every second line gives: MgrA DNA FP | S aureus helic
#81 S=C(c1cccc(Br)c1)N1CCNCC1
    x | 13.0
#82 O=C(NCc1ccc2c(c1)OCO2)Nc1ccc2ccccc2c1
    x | 15.0
#83 CNC(=S)NNS(=O)(=O)c1ccc(Cl)cc1
    x | 14.0
#84 CCn1c(O)c(/C=C2/C=CC=N2)c(=O)[nH]c1=S
    6.7 | 8.0
#85 NC(=O)NC(=O)CSc1nncn1-c1ccccc1
    x | -3.0
#86 Cc1ccc(-c2csc(C(C#N)=C3CCCC3)n2)cc1
    -2.4 | 6.0
#87 COc1ccc2cc3c(N)nn(C(=O)c4cncc(Br)c4)c3nc2c1
    x | -17.0
#88 CCCNc1c(NC(C)=O)c(=O)oc2ccccc12
    x | -31.0
#89 CCCOc1ccc(C(=O)Nc2ccc(-c3nc4ccccc4o3)cc2)cc1
    0.8 | 6.0
#90 COc1ccc(-c2csnn2)cc1
    0.5 | x

(next part)
Every second line gives: MgrA DNA FP | S aureus helic
#91 O=S(=O)(c1cccs1)n1nnc2ccccc21
    x | -19.0&18.0
#92 CS(=O)(=O)Nc1nnc(SCC(=O)Nc2ccccc2)s1
    x | 3.0
#93 CCOC(=O)c1c(SCC)nc(=O)[nH]c1C
    x | 7.0
#94 CCC(C)N1C(=O)C2C(C(=O)Nc3cccc(C)c3)C3C=CC2(O3)C1C(=O)NC1CCCC(C)C1C (stereo unspecified)
    0.3 | 8.0
#95 COc1ccc(C)cc1C(=O)CCC(=O)NC1CCCCC1
    x | -17.0
#96 COc1ccc(CC(=O)Nc2ccc(OC)cc2)cc1
    -2.5 | 2.0
#97 CN1c2ccccc2C(=O)/C(=N\Nc2cc(C(F)(F)F)cc(C(F)(F)F)c2)S1(=O)=O
    0.9 | x
#98 COc1cccc(CNC(C)C(=O)Nc2ccc(S(N)(=O)=O)cc2)c1 (stereo unspecified)
    x | 12.0
#99 O=C(/C=C/c1ccccc1)NCc1nc2ccccc2[nH]1
    -0.5 | -12.0
#100 COc1cccc(CNn2cnnc2)c1O
    11.7 | 2.0
#101 Cc1c(C(=O)NN)c2cc(O)ccc2n1C
    -3.8 | 6.0
#102 O=c1cc(CN2CCN(S(=O)(=O)/C=C/c3ccccc3)CC2)c2ccc(O)cc2o1
    x | 5.0
#103 COC(=O)c1ccc(C(=O)Nc2ccc3nc(-c4cccnc4)[nH]c3c2)cc1
    x | 8.0

Two records drawn at random from those above, as already listed:
Every second line gives: MgrA DNA FP | S aureus helic
#92 CS(=O)(=O)Nc1nnc(SCC(=O)Nc2ccccc2)s1
    x | 3.0
#100 COc1cccc(CNn2cnnc2)c1O
    11.7 | 2.0

Screening data as filed in PubChem BioAssay.
